NS1 function inh: influenza NS1 inhibition; Potency, µM (series often up to 46.1 µM), without a hit: at the highest dose activity, positive = more growth; AID 2326; S. cerevisiae slowed by influenza A NS1, growth recovery by OD600; hit rate 0.4% among 270,000; active means well fitted rising curve with a large enough effect; inconclusive means small, poorly fitted or top-dose-only effect; inactive means no such curve, though single readings can be large or run the other way; also: nearly all actives have a fitted effect of over 50% in size
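In this qHTS, NS1 from influenza A is expressed in budding yeast, where it slows growth. Cells are switched from glucose to 2% galactose medium (pH 6.0, -URA), treated with compound, and growth recovery is read at OD600.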
StopGo reporter: FMDV 2A StopGo reporter, luciferase signal; hit rate 1.2% among 410,000; Potency, µM (top dose mostly 57.9 µM), for inactives: top-dose signal change, negative = less light; human cells with a luciferase reporter of 2A StopGo recoding; control for the full effect not named in the record; active = well fitted falling curve with a large enough effect; inconclusive = small, poorly fitted or top-dose-only effect; inactive = no such curve, though single readings can be large or run the other way; tested in HEK293T cells; also: % is scaled to controls: 0 for no effect and ±100 for the full control effect; nearly all actives have a fitted effect of over 45% in size; luciferase light after 4 h
Cruzain inh noDet: cruzain (T. cruzi) inhibition without detergent. P25779. Potency, µM, for the others: max response, negative = inhibition, actives largely listed as inhibitors. hit rate 2.3% among 200,000. purified cruzain, Z-FR-AMC fluorescence, no detergent;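 also: plate controls were enzyme without inhibitor for no effect and buffer without enzyme for full effect; nearly all actives have a fitted effect of over 40% in size; top concentration of the series not given in the record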
Target sequence (P25779 123-467 limits assumed): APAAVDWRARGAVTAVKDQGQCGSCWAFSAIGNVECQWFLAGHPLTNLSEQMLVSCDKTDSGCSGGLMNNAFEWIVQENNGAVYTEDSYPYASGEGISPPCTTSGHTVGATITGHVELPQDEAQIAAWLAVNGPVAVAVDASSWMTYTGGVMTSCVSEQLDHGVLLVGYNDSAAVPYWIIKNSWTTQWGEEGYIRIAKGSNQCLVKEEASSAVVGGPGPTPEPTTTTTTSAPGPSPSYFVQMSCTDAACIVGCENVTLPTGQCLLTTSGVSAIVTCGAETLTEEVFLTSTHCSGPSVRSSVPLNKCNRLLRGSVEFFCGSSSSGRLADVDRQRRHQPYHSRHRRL
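Purified cruzain at 1.5 nM, pre-incubated 15 min with compound at room temperature in 100 mM sodium acetate pH 5.5, 5 mM DTT, 0.00005% Triton X-100. Reaction started with 2 uM Z-FR-AMC; AMC fluorescence increase over 60 s gives rate.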
SARS PLP yeast: inhibitors of SARS-CoV papain-like protease in yeast | hit rate 0.19% among 330,000 | Potency, µM (top dose mostly 32.9 µM), for the others: top-dose activity, positive = growth rescue | S. cerevisiae expressing SARS-CoV PLpro, growth rescue; control for the full effect not named in the record; active means well fitted rising curve with a large enough effect; inconclusive means small, poorly fitted or top-dose-only effect; inactive means no such curve, though single readings can be large or run the other way; also: 0% is about no effect; nearly all actives have a fitted effect of over 55% in size; growth read by luminescence after 48 h
MARV entry inh: Marburg virus entry inhibition | Marburg virus pseudotyped entry inhibition, cell reporter; control for the full effect not named in the record; about a third of the inactives were read at about 46 µM | Potency, µM (doses to about 37.8 µM), for the others: at the highest dose activity change, negative = inhibition, hits mostly inhibitors | hit rate 1.8% among 300,000; active = well fitted inhibition curve with a large enough effect; inconclusive = small, poorly fitted or top-dose-only effect, or effect the other way; inactive = flat fitted curve, though single readings scatter; tested in HEK293 cells; about a fifth of its hits are not listed in these tables; also: % is scaled to controls: 0 for no effect and ±100 for the full control effect; luciferase read-out
Cruzain inh Det: inhibitors of Trypanosoma cruzi cruzain with detergent | Potency, µM, for inactives: max response, negative = inhibition, most hits filed as inhibitors | purified cruzain, Z-FR-AMC fluorescence, 0.01% Triton | hit rate 0.43% among 200,000;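 also: plate controls were neutral wells for no effect and buffer without enzyme for full effect; nearly all actives have a fitted effect of over 40% in size; top concentration of the series not given in the record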
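Read-out: AMC fluorescence (360 nm excitation, 450 nm emission), four reads over 2 min, first-to-third difference used. Conditions: cruzain 1.5 nM, Z-FR-AMC 2 uM, pH 5.5 acetate, 5 mM DTT, 0.01% Triton X-100.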
Lassa entry inh: blocks Lassa virus binding to or entry into cells. Lassa virus pseudotype entry inhibition, cell reporter; control for the full effect not named in the record. Potency, µM (titrated, usually from 37.9 µM), for the others: top-dose activity change, negative = inhibition, most hits filed as inhibitors. hit rate 1.2% among 300,000. AID 540256; active means well fitted inhibition curve with a large enough effect; inconclusive means small, poorly fitted or top-dose-only effect, or effect the other way; inactive means flat fitted curve, though single readings scatter; tested in HEK293 cells; also: % is scaled to controls: 0 for no effect and ±100 for the full control effect; nearly all actives have a fitted effect of over 50% in size; luciferase read-out
RE007 growth inh: less growth of the S. pombe RE007 Vpr strain; S. pombe RE007 Vpr strain, BacTiter-Glo ATP luminescence, 24 h; control for the full effect not named in the record; Potency, µM (top dose mostly 92.2 µM), for the others: at the top dose activity change, negative = less growth; hit rate 0.21% among 360,000; AID 651644; active = well fitted falling curve with a large enough effect; inconclusive = small, poorly fitted or top-dose-only effect; inactive = no such curve, though single readings can be large or run the other way;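 also: % is scaled to controls: 0 for no effect and ±100 for the full control effect; nearly all actives have a fitted effect of over 50% in size; the assay follows cell death caused by Vpr and the record does not say whether a fall means rescue or toxicity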
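Fission yeast strain RE007, carrying one chromosomally integrated HIV-1 vpr copy, was seeded at OD 0.01 in PMG+AL medium with 23 nL pinned compound. After 24 h at 30 °C and 99% humidity, viability was read by BacTiter-Glo luminescence.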
An asterisk follows results filed as active; u = inconclusive; x = no result given; [ ] = dose if it differs, or a comment. Unless noted, calls follow the shape of the dose curve; as a rule, active = well fitted curve in the direction sought with a large enough effect; inconclusive = small, poorly fitted or top-dose-only effect, or another doubt; inactive = no such curve, though single readings can be large; an effect the other way counts as inactive or inconclusive. Potency is read from the fitted curve at half-maximal effect.

SMILES | NS1 function inh | StopGo reporter | Cruzain inh noDet | SARS PLP yeast | MARV entry inh | Cruzain inh Det | Lassa entry inh | RE007 growth inh
CCOc1ccc(OCCCCN2CCCC2)cc1 | 5% | 3% | 4% | 1%[6.58 µM] | 22%[46.1 µM] | 7.4% | 15% | 2%
O=C(Nc1ccc(N2CCOCC2)cc1)C1CCN(S(=O)(=O)c2ccccc2F)CC1 | 3% | -10% | x | -1% | x | x | x | 2%
CCCCN1C(=O)C2(OCCCO2)c2cccc(C)c21 | 8% | -8% | x | 18% | 13% | x | 4% | -2%
CCOc1ccc(Nc2oc(-c3ccc(Cl)cc3)nc2C#N)cc1 | -3% | 46%[activator] | u | -7% | 7.3µM* | 1.7% | 16µM* | -7%
COc1ccc(N2C(=O)CC(Nc3ccc(C)cc3)C2=O)cc1 (stereo not given) | -7% | 4% | u | u | -2% | 3.8% | -1% | -9%
CCn1ccc2c(OCC(=O)Nc3ccc(C)c(Cl)c3)cccc2c1=O | x | -8% | u | x | x | -6.9% | u | x
COc1ccccc1OCc1nnc(-c2ccccc2)o1 | x | 23% | -6% | x | 21%[46.1 µM] | -2.5% | 22%[46.1 µM] | x
CCCCOP(=O)(c1ccc(N(C)C)cc1)C(O)c1cc(OC)c(OC)c(OC)c1 (stereo not given) | -4% | -7% | x | 2% | 14% | x | 8% | 0%
CS(=O)(=O)N(CC(=O)Nc1c(F)cccc1F)Cc1ccccc1 | 12% | -14% | x | 0% | x | x | x | 7%
Cc1ccccc1C1c2[nH]c3ccccc3c2CCN1C(=O)c1ccc(=O)n(C)n1 (stereo not given) | 12% | 3% | x | 1% | u | x | u | 5%
O=C(COc1ccc(F)cc1)Nc1ccc(OCc2cc(=O)n3ccsc3n2)cc1 | x | -4% | -4% | x | 5%[46.1 µM] | -2.1% | 8%[46.1 µM] | x
Cc1nn(CC(=O)Nc2sc3c(c2C#N)CCC(C(C)(C)C)C3)c(C)c1[N+](=O)[O-] (stereo not given) | 2% | 10% | 11% | 7% | 2% | -0.7% | 0% | -7%
O=C(O)c1ccn2c(C(=O)c3ccccc3)c(-c3ccccc3)cc2c1 | -45% | -3% | x | -4% | -17%[46.1 µM] | x | 19% | -16%
CCC1CCc2c(sc(NC(=O)C3c4ccccc4Oc4ccccc43)c2C#N)C1 (stereo not given) | x | -18% | 7.9µM* | x | 13%[46.1 µM] | -4.5% | -13%[46.1 µM] | x
Cc1ccccc1OCCSc1nnc(-c2ccc([N+](=O)[O-])cc2)o1 | x | -25% | 12% | x | 6%[46.1 µM] | 1.1% | 13%[46.1 µM] | x
CC(=O)c1ccc(OCCCC(=O)Nc2ccc(S(=O)(=O)N3CCOCC3)cc2)cc1 | x | -24% | x | 11µM* | -19% | x | -20% | -3%
CCn1c(C)cc(C(=O)CSc2nnnn2C2CCCC2)c1C | x | -9% | x | -9% | -24% | x | u | -9%
COc1ccc(CC(=O)Nc2cc(-c3nc4cccnc4s3)ccc2C)cc1 | x | 31%[activator] | u | x | x | -3.2% | 1%[46.1 µM] | x
COc1ccc2nc(SCC(=O)NC3CCCc4ccccc43)[nH]c2c1 (stereo not given) | -12% | -30% | -27% | 12% | -26% | 14µM* | -17% | -3%
CC(NC(=O)C(=O)N1CCOCC1)C(c1cccs1)N1CCN(c2ccccc2F)CC1 (stereo not given) | 2% | -4% | x | -4% | x | x | x | -1%
O=C(Oc1ccc(/C=N/NC(=O)c2ccccc2O)cc1)c1ccccc1 | -4% | 5% | -18% | -4% | 7% | -9.6% | 22% | -7%
CC(=O)c1c(C)nc2ccc(C)cc2c1-c1ccccc1 | -4% | -12% | x | -1% | u | x | 4% | -1%
C=CCNC(=O)CN1CCC(c2nc3cc(C)c(C)cc3[nH]2)CC1 | 3% | 10% | x | -1% | 5%[46.1 µM] | x | 12%[46.1 µM] | -3%
CCc1cccc(NC(=O)C2CCCN2S(=O)(=O)c2ccc3c(c2)CC(C)N3C(C)=O)c1 (stereo not given) | 3% | 0% | x | 4% | x | x | x | -3%
CCn1c(CC(C)C)n[nH]c1=S | -1% | 0% | 3% | 5% | 13% | 3.9% | -6% | -3%
CCOC(=O)C1(Cc2ccc(Cl)cc2)CCN(C(=O)c2ccoc2)CC1 | 4% | -9% | x | 0% | u | x | -10%[46.1 µM] | 11%
Cc1cccc(NC(=O)c2ccc(NCCc3ccccc3)c([N+](=O)[O-])c2)c1 | 12% | -12% | -21% | -5% | -4% | -2.6% | u | 11%
COc1cc(C(=O)NCC(=O)NCC2COc3ccccc3O2)cc(OC)c1OC (stereo not given) | x | u | x | -3% | -12% | x | -4% | 7%
NCCS(=O)(=O)NC1CCCCC1 | 10% | -3% | x | 0% | u | x | 12% | -4%
NC(=O)c1ccc(-n2nc(C(F)(F)F)c3c2CCCC3)cc1 | -4% | -1% | 4% | -3% | u | -7.7% | 5% | -16%
Cc1ccsc1/C=N/NC(=O)CNC(=O)c1ccccc1 | -13% | -5% | x | 3% | x | x | x | 9%
COc1ccc2c(CC(=O)Nc3ncc(C)s3)coc2c1 | x | 14% | x | 3% | u | x | 0%[46.1 µM] | 19%
CCCn1c(-c2cccc(Br)c2)nc2ccccc21 | x | -12% | 0% | x | 15%[46.1 µM] | -9.2% | 7%[46.1 µM] | x
COc1ccc(CN(C(=O)c2cccs2)c2nccs2)cc1OC | -8% | u | 1% | 1% | -7% | -2.3% | -4% | -12%
CN(C)S(=O)(=O)c1cccc(CNCC2COc3ccccc3O2)c1 (stereo not given) | 0% | -24% | x | 2% | x | x | x | -2%
O=C(CN1CCOCC1)NN=C(c1ccccc1)c1ccccc1 | -6% | -2% | x | 0% | 19%[46.1 µM] | x | -18% | 2%
COc1ccc(NC(=O)c2cccs2)cc1 | 8% | 49%[activator] | 7% | -45% | u | -3.0% | u | -20%
CC(=O)N1CCOc2ccc(S(=O)(=O)N3CC(C)CC(C)C3)cc21 (stereo not given) | -3% | -12% | x | 17% | x | x | x | -11%
CN1CCCN(S(=O)(=O)c2ccc3ccccc3c2)CC1 | -14% | 5% | x | 0% | 1%[46.1 µM] | x | -23% | -17%
COc1ccc(CC(=O)NCCc2sc3nc(-c4ccc(OC)cc4)nn3c2C)cc1 | x | 23% | u | x | x | -3.6% | 12%[46.1 µM] | x
CC(C)CC(=O)Nc1cccc(-c2nc3ccccc3o2)c1 | -20% | 19% | 28% | -7% | u | -0.1% | -1% | 14%
COc1ccc(C(=O)NCC2(c3ccc(OC)c(OC)c3)CCCC2)c(OC)c1 | -10% | u | x | 2% | x | x | x | 1%
COc1ccc(C)cc1Nc1nc(C)nc2c1oc1ccccc12 | -1% | -29% | x | -1% | u | x | -17% | -3%
COCCCNC(=O)c1ccc(N(C)S(C)(=O)=O)cc1 | 5% | x | -5% | 8% | 16% | 1.2% | 0% | 1%
Cc1ccc(C=NNC(=O)c2cc(-c3cccnc3)nc3ccccc23)o1 | x | 0% | x | 2% | u | x | u | 3%
Cc1ccc(CN(C(=O)c2ccc(F)cc2)c2ccccn2)o1 | x | 13% | -10% | x | 13%[46.1 µM] | -0.8% | -6%[46.1 µM] | x
COc1cc(CNCCO)cc(Cl)c1OCc1ccccc1Cl | 3% | -6% | x | -1% | u | x | -20% | -13%
Cn1cnnc1SC(C(=O)Nc1cccc(C(F)(F)F)c1)c1ccccc1 (stereo not given) | 7% | 10% | 0% | 9% | u | -2.4% | 19% | 14%

Part of the list above, with values under each structure:
Every second line gives: NS1 function inh | StopGo reporter | Cruzain inh noDet | SARS PLP yeast | MARV entry inh | Cruzain inh Det | Lassa entry inh | RE007 growth inh
- Cc1nn(CC(=O)Nc2sc3c(c2C#N)CCC(C(C)(C)C)C3)c(C)c1[N+](=O)[O-] (stereo not given)
 : 2% | 10% | 11% | 7% | 2% | -0.7% | 0% | -7%
- O=C(O)c1ccn2c(C(=O)c3ccccc3)c(-c3ccccc3)cc2c1
 : -45% | -3% | x | -4% | -17%[46.1 µM] | x | 19% | -16%
- CCC1CCc2c(sc(NC(=O)C3c4ccccc4Oc4ccccc43)c2C#N)C1 (stereo not given)
 : x | -18% | 7.9µM* | x | 13%[46.1 µM] | -4.5% | -13%[46.1 µM] | x
- Cc1ccccc1OCCSc1nnc(-c2ccc([N+](=O)[O-])cc2)o1
 : x | -25% | 12% | x | 6%[46.1 µM] | 1.1% | 13%[46.1 µM] | x
- CC(=O)c1ccc(OCCCC(=O)Nc2ccc(S(=O)(=O)N3CCOCC3)cc2)cc1
 : x | -24% | x | 11µM* | -19% | x | -20% | -3%
- CCn1c(C)cc(C(=O)CSc2nnnn2C2CCCC2)c1C
 : x | -9% | x | -9% | -24% | x | u | -9%

Following part
SMILES | NS1 function inh | StopGo reporter | Cruzain inh noDet | SARS PLP yeast | MARV entry inh | Cruzain inh Det | Lassa entry inh | RE007 growth inh
Cc1ccc(S(=O)(=O)N2CCCN(C(=O)OC(C)(C)C)CC2)cc1 | -7% | -1% | x | 0% | -2%[46.1 µM] | x | u | -5%
N#Cc1cc2c([nH]c1=S)CCCCCC2 | 0% | x | -6% | 1% | 9% | 0.0% | 12% | 36%
O=C(Nc1ccc(F)cc1)c1cc2c(s1)CCCC2 | -59% | -7% | x | -1% | -1%[14.2 µM] | x | u | u
CCOC(=O)C1CCN(S(=O)(=O)Cc2ccccc2)C1=O (stereo not given) | 6% | 5% | 0% | 1% | -2% | -2.1% | -13% | 3%
Cc1ccc(NC(=O)c2cc3ccccc3oc2=O)cc1S(=O)(=O)N(C)C | x | u | x | -1% | x | x | u | 1%
Cc1nc(NCc2ccccn2)c2c3c(sc2n1)CCCC3 | -64% | u | x | 0% | u | x | -1%[46.1 µM] | -13%
Cc1ccc2[nH]c(CSc3ccccc3)cc(=O)c2c1 | -4% | -19% | x | -1% | -14%[46.1 µM] | x | 5%[46.1 µM] | -1%
Cn1c2ccccc2c2n[nH]c(=O)nc21 | x | 2% | x | 1% | 4%[46.1 µM] | x | -9% | -8%
CCS(=O)(=O)c1ccc(C(=O)NC)c(Cl)c1Cl | 7% | -8% | x | 0% | -1%[46.1 µM] | x | 12%[46.1 µM] | 9%
